# Compound activity from PubChem.
# gsp antagonist – qHTS for Antagonists of gsp, the Etiologic Mutation Responsible for Fibrous Dysplasia/McCune-Albright Syndrome: qHTS; gsp-mutant cells, cAMP HTRF, 30 min; control for the full effect not named in the record; 340,000 compounds, 0.4% hits; AID 624288, 2012; Potency, µM (titrated, usually from 76.9 µM), without a hit: at the highest dose activity change, negative = inhibition, usual class: inhibitors; active = falling curve of any shape with a large fitted effect; inconclusive = falling curve, mostly with a smaller effect; inactive = flat or rising curve; cell line not stated here;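 note: intracellular cAMP measured with PDE inhibitor Ro 20-1724 present during compound exposure; potency is the fitted concentration of half-maximal effect; % is set by controls: 0 for no effect and ±100 for the full control effect; nearly all actives have a fitted effect of over 65% in size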
#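 Measurement of cellular cAMP by homogeneous time-resolved fluorescence following a 30 min compound exposure at 37C. The PDE inhibitor […] was present throughout; the assay buffer was DPBS with 0.05% BSA and 0.005% Tween 20.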
# ClpP mod – qHTS Assay for Activators of ClpP; ATP-dependent Clp protease proteolytic subunit (Bacillus subtilis (strain 168)), P80244; purified B. subtilis ClpP, FRET peptide cleavage, 20 min; Potency, µM (doses to about 57.5 µM), for inactives: top-dose activity change, negative = active; 340,000 compounds, 1.9% hits; AID 651965, 2013; active = well fitted falling curve with a large enough effect; inconclusive = small, poorly fitted or top-dose-only effect; inactive = no such curve, though single readings can be large or run the other way; note: potency is the fitted concentration of half-maximal effect; the source files actives as falling curves though it sought activators and does not explain the sign; nearly all actives have a fitted effect of over 65% in size; many hits overshoot -100%
# Target sequence (P80244 whole entry, looked up): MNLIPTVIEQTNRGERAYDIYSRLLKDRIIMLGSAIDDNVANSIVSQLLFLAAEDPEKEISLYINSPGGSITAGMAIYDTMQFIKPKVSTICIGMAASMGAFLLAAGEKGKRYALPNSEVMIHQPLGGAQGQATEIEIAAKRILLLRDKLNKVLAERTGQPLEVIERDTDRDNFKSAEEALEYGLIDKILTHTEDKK
#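 ClpP 10 microg/mL final, pH 8 Tris/KCl buffer with BSA, glycerol, Tween-20; compound pinned in; FRET-FV substrate; RT 20 min; Ex320/Em430; ΔFRET vs ADEP 5.8 microM, DMSO, no enzyme.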
# gsp ag – qHTS for Agonist of gsp, the Etiologic Mutation Responsible for Fibrous Dysplasia/McCune-Albright Syndrome: qHTS | Potency, µM (series often up to 76.9 µM), for the others: top-dose activation (cAMP increase), actives largely listed as activators | 340,000 compounds, 0.13% hits | gsp mutant cells, cAMP HTRF, 30 min; control for the full effect not named in the record; active = well fitted activation curve with a large enough effect; inconclusive = small, poorly fitted or top-dose-only effect, or another doubt; inactive = no such curve, though single readings can be large or run the other way; cell line not stated here;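 note: phosphodiesterase inhibitor Ro 20-1724 added with compounds to block cAMP breakdown; potency is the fitted concentration of half-maximal effect; nearly all actives have a fitted effect of over 60% in size; about a fifth of the inactives were tested at one dose only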
#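 Cells in DMEM/10% FBS with G418 were pretreated with compounds in DMSO plus […] (300 uM stock) for 30 min at 37C. cAMP was measured by HTRF (cAMP-d2 plus anti-cAMP antibody-K) after 30 min at room temperature.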
# D2 PAM – Beta-Arrestin HTS for Positive Allosteric Modulators of the Human D2 Dopamine Receptor: Potentiators; DiscoveRx D2 beta-arrestin cells, luminescence, 90 min; 100% = 57 uM dopamine signal; 360,000 compounds, 0.23% hits; potentiation, % (no concentration beside the values); active = potentiation of 50% or more; inconclusive = 30% to 50%; inactive = 30% or less;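 note: compound concentration not given in the record; tested on top of an EC20 dose of dopamine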
#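 PathHunter beta-arrestin assay in DiscoveRx D2 cells. Compounds were added with an EC20 of dopamine (50 nM final) for 90 min at 37 deg C. Luminescence was read 1 h after detection reagent, with 57 uM dopamine as the EC100 control.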
# Sfp inh – qHTS Assay for Inhibitors of Bacillus subtilis Sfp phosphopantetheinyl transferase (PPTase); AID 1490, 2009; Potency, µM, for inactives: max response, negative = inhibition, hits mostly inhibitors; 310,000 compounds, 3.5% hits; 4'-phosphopantetheinyl transferase ffp (Bacillus subtilis), Q9F4F7; Biochemical Sfp PPTase activity, qHTS; active = well fitted inhibition curve with a large enough effect; inconclusive = small, poorly fitted or top-dose-only effect, or another doubt; inactive = no such curve, though single readings can be large or run the other way;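 note: the enzyme is Sfp with the accession as filed and its product quenches rhodamine fluorescence; potency is the fitted concentration of half-maximal effect; 0% = enzyme reaction without inhibitor and -100% = no enzyme wells; top concentration of the series not given in the record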
#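 Sfp 15 nM + cpd, 15 min RT; start w/ rhodamine-CoA 5 uM, BHQ-2-YbbR 12.5 uM (final); 50 mM Hepes pH 7.6, 10 mM MgCl2, 0.01% NP-40, 0.01% BSA; read 525/598 nm at 0 and 30 min.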
# Menin MLL FP FL – qHTS Assay for Inhibitors Targeting the Menin-MLL Interaction in MLL Related Leukemias: Competition With Fluorescein Labeled MLL-derived Peptide; Fluorescence polarization, fluorescein-MLL peptide displacement from menin; FP activity change, % at 61.4 µM; 290,000 tested, under 10 active; AID 1766, 2009; inconclusive = falling polarisation curve, or a change in total fluorescence; inactive = total fluorescence flat and polarisation flat or rising; no compound was filed as active; the % refers to the polarisation; negative = inhibition;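 note: % of control where 0% means no effect; inhibitors lower the polarisation; unlabelled MLL peptide was the positive control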
# TRPV1 PAM – HTS Assay for Compounds that Act as Potentiators of the Vanilloid Receptor 1; potentiation, % at 8.33 µM; AID 540277, 2011; Transient receptor potential cation channel subfamily V member 1 (Homo sapiens), Q8NER1; 320,000 compounds, 0.02% hits; TRPV1-expressing cells, Fluo-8 calcium influx, capsaicin EC20 potentiation; host cell line not named in the record; control for the full effect not named in the record; active means potentiation above 80%; inconclusive means 30% to 80%; inactive means below 30%; note: 0% is about no effect
# Target sequence (Q8NER1 whole entry, looked up): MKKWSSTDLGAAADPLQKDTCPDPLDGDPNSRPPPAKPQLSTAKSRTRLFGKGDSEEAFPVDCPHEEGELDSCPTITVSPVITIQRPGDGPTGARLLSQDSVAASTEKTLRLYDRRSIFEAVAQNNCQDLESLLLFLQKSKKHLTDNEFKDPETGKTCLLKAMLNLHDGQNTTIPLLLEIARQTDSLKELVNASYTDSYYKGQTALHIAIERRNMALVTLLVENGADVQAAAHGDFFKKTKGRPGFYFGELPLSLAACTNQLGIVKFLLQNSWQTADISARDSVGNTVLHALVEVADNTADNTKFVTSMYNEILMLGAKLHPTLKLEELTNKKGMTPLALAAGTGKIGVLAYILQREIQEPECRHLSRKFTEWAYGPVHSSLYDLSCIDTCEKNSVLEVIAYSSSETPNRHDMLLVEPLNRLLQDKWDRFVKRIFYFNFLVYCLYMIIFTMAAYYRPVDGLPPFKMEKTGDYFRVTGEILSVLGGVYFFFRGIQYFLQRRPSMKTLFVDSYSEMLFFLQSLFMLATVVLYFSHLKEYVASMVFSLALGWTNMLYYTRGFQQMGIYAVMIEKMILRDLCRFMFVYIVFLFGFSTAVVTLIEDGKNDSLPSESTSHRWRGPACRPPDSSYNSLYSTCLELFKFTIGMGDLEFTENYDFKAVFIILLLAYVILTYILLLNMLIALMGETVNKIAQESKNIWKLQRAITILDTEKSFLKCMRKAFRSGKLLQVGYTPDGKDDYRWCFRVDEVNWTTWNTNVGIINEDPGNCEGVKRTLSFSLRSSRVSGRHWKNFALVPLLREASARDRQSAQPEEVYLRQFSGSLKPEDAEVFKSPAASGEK
#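 Cells expressing TRPV1 were dye-loaded with Fluo-8 and read kinetically: 10 s baseline, 3 min after compound (agonist portion), then 2 min after EC20 capsaicin (allosteric enhancer portion). Calcium-bound dye fluorescence at 480/520 nm.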
# * = called active by the depositor; ? = inconclusive; . = no result given; & = joins results of further samples; [ ] = dose if it differs, or a comment.
SMILES,gsp antagonist,ClpP mod,gsp ag,D2 PAM,Sfp inh,Menin MLL FP FL,TRPV1 PAM
C=CCNC(=S)NNC(=O)c1ccccc1OCC,13%,1.4%,-2%[15.4 µM],-5,14%,5.9,24
Oc1ccc2ccccc2c1/C=N/c1nc2c(s1)CCCC2,-9%,-6.0%,-45%[inhibitor],?,-2%,3.2,6
COc1ccc(/C=C/C(=O)O)cc1S(=O)(=O)N1CCc2ccccc21,-11%,-11%,14%[15.4 µM],-4,18%,-1.4,1
O=C(NC1CCCCCC1)c1ccc(CS(=O)Cc2cccc(Cl)c2)o1 (stereo unspecified),?,2.6%,-28%,-7,11%,.,17
COc1ccc(N(CC(=O)N/N=C/c2ccc(-c3ccc([N+](=O)[O-])cc3)o2)S(=O)(=O)c2ccc(C)cc2)cc1,-2%,0.4%,9%,21,27%,2.6,4
COC(=O)c1ccc(C2C(C(=O)OCC(C)C)=C(C)N=C3SCCC(=O)N32)cc1 (stereo unspecified),?,1.7%,16%,-6,0%,5.5,-30
CCN(c1ccccc1)S(=O)(=O)c1ccc(C(=O)OC(C)C(=O)NCCC2=CCCCC2)cc1 (stereo unspecified),-5%,-1.8%,?,-15,8%,4.4,-6
COc1cc2cnc(-c3ccccc3)c(-c3ccc(C#N)cc3)c2cc1OC,-10%,-21%,2%,-3,.,.,-14
CC1CC(C)CN(C(=O)c2cc3cc(Br)cc(Br)c3o2)C1 (stereo unspecified),-18%,-3.1%,15%[15.4 µM],-10,-20%,-2.6,-15
COc1ccc(C(=O)CCN2CCc3cc(OC)c(OC)cc3C2)cc1,-1%,.,-5%[15.4 µM],-12,-10%,-3.3,-13
O=C(CN(C(=O)c1csnn1)c1cccc2c1CCCC2)NC1CCCC1,-8%,.,11%[15.4 µM],-10,10%,-3.1,12
CCN1CCN(c2cc(C)c3cc(NC(=O)c4cccs4)ccc3n2)CC1,-7%,.,15%[15.4 µM],-12,-4%,2.4,3
CCOC(=O)c1[nH]c(CSc2nnnn2-c2ccccc2C)c(C(=O)OCC)c1C,-8%,-3.0%,-1%,2,1%,14,-1
FC(F)(F)COc1ccc(-c2nnc(SCc3c(Cl)cccc3Cl)o2)cn1,20%,1.2%,1%[15.4 µM],-3,-11%,6.2,20
C[C@H]1CN([C@@H](C)CO)C(=O)CCCn2nncc2CO[C@H]1CN(C)S(=O)(=O)c1ccccc1F,.,-0.7%,-74%[inhibitor],-2,.,.,.
O=S(=O)(c1ccccc1F)N1CCC(Oc2ccc(-n3cnnn3)cc2)CC1,3%,-2.7%&-0.5%,-4%,-6,5%,.,4
O=C(c1ccco1)N1CCN(C2CC(=O)N(c3ccccc3)C2=O)CC1 (stereo unspecified),15%,0.7%,-19%,-6,11%,2.7,25
COc1ccc(OC(=O)c2ccncc2)cc1,-3%,1.2%,-13%,-2,9%,-0.5,-8
COc1ccc2c(CC(=O)NNC(=O)c3cccs3)coc2c1,-6%,-7.5%,4%[15.4 µM],-20,.,.,13
CCCC1(c2ccccc2)NC(=O)NC1=O (stereo unspecified),4%,.,5%,-5,-2%,4.6,1
O=C(Nc1cc([N+](=O)[O-])ccc1Cl)C1CC1,-19%,0.7%,3%,18,-13%,1.3,1
CC(=O)CSc1nnc(-c2ccco2)n1-c1ccccc1,-4%,1.2%,-24%,-7,1%,-1.5,3
N#Cc1c(NCCN)nc(-c2ccccc2)c2c1CCCC2,-14%,0.0%,12%,-15,-9%,0.4,3
CC(=O)N(C)c1ccc(NC(=O)Nc2ccccc2C)cc1,1%,.,-46%[inhibitor],-2,4%,-4.7,5
CN(CC(=O)Nc1ccc(F)cc1)C(=O)c1ccc(-c2ccc(F)cc2)o1,.,-26%,?,-15,.,.,.

# (listing goes on)
SMILES,gsp antagonist,ClpP mod,gsp ag,D2 PAM,Sfp inh,Menin MLL FP FL,TRPV1 PAM
CCOc1ccc2[nH]c(=O)c(CN(Cc3ccccc3OC)C(=O)c3ccccc3)cc2c1,-11%,32µM*,4%,-22,0%,-1.4,-2
COc1ccc(C(=O)Nc2ccc(-c3nnn(CC(=O)N4CCN(C(=O)c5ccco5)CC4)n3)cc2)cc1,-2%,23%,?,2,20%,0.8,-1
Cc1ccc(N=C2SC(C(=O)NCCc3ccccc3)CC(=O)N2C)cc1C (stereo unspecified),-17%,.,-13%,2,14%,-2.5,0
Cc1ccc(CCNC(=O)NC(C)(C)C)cc1,-6%,1.5%,-16%,22,14%,3.8,-12
COc1ccc(CNC(=O)COC(=O)/C=C/c2cccc(Br)c2)cc1OC,6%,.,-23%,-4,-26%,-3.1,?
Cc1ccc(-n2c(CNc3cccc(Cl)c3)n[nH]c2=S)cc1,-10%,.,-1%[15.4 µM],-20,-15%,0.5,2
CCC(C)(C)n1nnnc1CN(Cc1cc2cc(OC)c(OC)cc2[nH]c1=O)C1CCCC1,-2%,?,-33%[inhibitor],-8,-4%,-4.8,-8
CN1C(=O)C2(c3ccccc31)N(C)CC(c1ccccn1)C21SC(=S)N(Cc2ccco2)C1=O (stereo unspecified),-24%,-1.4%,-27%,-14,-4%,2.3,6
Cc1cc(CNC(=O)COC(=O)Cn2[nH]c(=O)c3ccccc3c2=O)cc(C)c1O,-4%,-3.2%,-4%,-23,.,.,0
CC1Cc2ccccc2N1C(=O)CN1CCN(Cc2ccccc2)CC1 (stereo unspecified),7%,0.2%,6%,-14,?,-2.1,-2
CCOC(=O)c1ccccc1NC(=O)COc1coc(CN2CCc3ccccc32)cc1=O,?,-9.5%,?,-2,.,.,27
NC(=O)C1(N2CCCCC2)CCN(c2ccc3nnc(-c4ccccc4)n3n2)CC1,2%,-11%,?,-4,16%,2.8,16
COc1ccc(CCNC(=O)CCS(=O)(=O)c2ccc3c(c2)NC(=O)C(C)S3)cc1OC (stereo unspecified),-6%,0.2%,-39%[inhibitor],-1,12%,0.6,-1
O=C(COC(=O)CN1C(=O)NC2(CCCC2)C1=O)Nc1c(Cl)cccc1C(F)(F)F,4%,-0.4%,-3%,-6,.,.,-10
CN1CCN(C(=S)c2cn(Cc3ccc(Br)cc3)c3ccccc23)CC1,-7%,-3.4%,4%,-11,12%,1.8,-3
O=C(CSc1nnc(-c2ccncc2)n1Cc1ccco1)OC1CCCCC1,-7%,0.6%,?,-7,14µM*,6.0,19
COc1ccc(/C=C/C(=O)N2CCN(c3ccccn3)CC2)cc1OC,0%,.,-54%[inhibitor],-2,13%,-1.0,-1
Cc1cccc(N2CCN(C(=O)CC(NC(=O)c3ccccc3Cl)c3ccccc3)CC2)c1C (stereo unspecified),?,.,19%,-10,1%,4.2,-3
O=C(Nc1nnc(SCc2ccc(Cl)cc2)s1)C1CCCO1 (stereo unspecified),9%,-0.6%,14%,-4,-14%,5.7,29
Cc1cc(C)nc(N2CCC(C(=O)NCc3ccccc3)CC2)n1,-3%,-8.0%,0%,-6,-14%,-0.8,-53
COCCNC(=O)CSc1c2c(nc3ccc(Cl)cc13)CCCC2,2%,1.3%,-45%[inhibitor],-6,4%,-3.0,1
O=C(COC(=O)/C=C/c1ccccc1Cl)NC1CC1,.,0.0%,4%,-8,.,.,.
O=C(/C=C/c1cc([N+](=O)[O-])ccc1OC(F)F)Nc1ccc(OC(F)F)cc1,17%,.,-13%,-8,17%,2.7,-6
Cc1cc(C(=O)CN2C(=O)C(=O)N(Cc3ccccc3)C2=O)c(C)n1Cc1ccc(F)cc1,8%,-1.7%,?,-7,.,.,3
Cc1oc(C(C)(C)C)cc1C(=O)Nc1ccc(C(=O)O)cc1,0%,1.4%,-9%,-1,18%,-2.4,27

# More records follow.
SMILES,gsp antagonist,ClpP mod,gsp ag,D2 PAM,Sfp inh,Menin MLL FP FL,TRPV1 PAM
Clc1ccc(-c2noc(CCCc3ccccc3)n2)cc1,-5%,-3.1%,0%,-9,-1%,1.8,-19
Cc1ccc(C)c(OCCn2nnc3ccccc32)c1,-12%,1.3%,3%,-6,-8%,1.8,-16
CCOC(=O)c1sc(=S)n(Cc2ccccc2)c1N,31%[activator],4.9%,-18%,-10,-11%,-0.3,4
O=C1C[C@H](NC(=O)OCc2ccccc2)CO1,5%,1.1%,4%,3,.,.,7
CCOC(=O)N1CCc2c(sc3ncn(Cc4ccc(F)cc4)c(=O)c23)C1,8%,.,1%[15.4 µM],1,10%,2.1,9
CCc1nc2ccc(C(=O)NCCCN3CCN(c4ccc(F)cc4)CC3)cc2nc1CC,4%,-2.2%,4%[15.4 µM],-5,2%,8.2,4
Cc1ccc(S(=O)(=O)Nc2ccc3cn[nH]c3c2)c(C)c1,-6%,-0.6%,9%,-4,.,.,2
O=C(NCc1ccc(Cl)cc1)c1ccc2c(=O)n(CC3CCCO3)c(=S)[nH]c2c1 (stereo unspecified),?,-0.5%,5%[15.4 µM],-7,21%,3.2,22
CCOc1ccc(CCNC(=O)c2ccc(S(=O)(=O)N3CCCC3)cc2)cc1OCC,-3%,.,1%[15.4 µM],-2,.,.,?
Cc1ccc(C(C(=O)NC2CCCC2)N(Cc2ccc(F)cc2)C(=O)c2snc(C(N)=O)c2N)o1 (stereo unspecified),-16%,.,5%,-4,10%,.,0
Cc1cc2c3c([nH]c2cc1S(=O)(=O)N1CCC2(CC1)OCCO2)CCCC3=O,-8%,-2.3%,27%,-5,8%,.,14
Cc1nc(C)n(CC(=O)N2CCCC(C(=O)c3ccc(Cl)cc3C)C2)n1 (stereo unspecified),-2%,-1.1%,-57%[inhibitor],-11,4%,3.3,3
Cn1c2c(c(=O)n(C)c1=O)C(NS(=O)(=O)c1ccc(Cl)cc1)(C(F)(F)F)C(=O)N2 (stereo unspecified),6%,-8.3%,0%,-3,0%,-1.5,6
